Screens: PubChem, National Center for Advancing Translational Sciences (NCATS)
2A firefly – Primary qHTS Assay for Foot and Mouth Disease Virus Antivirals against NCGC Sytravon and CBC Compound Libraries: Firefly Luciferase Signal; HEK cells with a luciferase reporter of 2A StopGo recoding; AID 1745856, 2022; Potency, µM (titrated, usually from 57.5 µM), without a hit: at the top dose signal change, negative = less light; 120,000 compounds, 0.23% hits; active = well fitted falling curve with a large enough effect; inconclusive = small, poorly fitted or top-dose-only effect; inactive = no such curve, though single readings can be large or run the other way; further: nearly all actives have a fitted effect of over 60% in size; overnight with compound
2A Renilla – Primary qHTS Assay for Foot and Mouth Disease Virus Antivirals against NCGC Sytravon and CBC Compound Libraries: Renilla Luciferase Signal; HEK cells with a luciferase reporter of 2A StopGo recoding; 120,000 compounds, 0.32% hits; Potency, µM (titrated, usually from 57.5 µM), without a hit: top-dose signal change, negative = less light; active means well fitted falling curve with a large enough effect; inconclusive means small, poorly fitted or top-dose-only effect; inactive means no such curve, though single readings can be large or run the other way; further: nearly all actives have a fitted effect of over 55% in size; overnight with compound
* = called active by the depositor; [ ] = dose if it differs, or a comment. On the % scale 0 is the no-effect control and ±100 the full control effect; potency means the concentration at half of the fitted maximal effect.

For COc1cc(C)ccc1OCCSc1nc2ccc(NC(=O)c3ccc4c(c3)OCO4)cc2s1 the results were 2A firefly 0.6% and 2A Renilla -15.1%.
`CCNc1c(NC(=O)Nc2ccc(CC)cc2)c(=O)oc2ccccc12` gave 2A firefly 10.0% and 2A Renilla 10.7%.
Screening CCSc1nc2c([nH]c3ccccc32)c(=O)n1-c1ccc(F)cc1 returned 2A firefly -11.9% and 2A Renilla -19.0%.
For C[N+]1(C)CCC(OC(=O)C(O)(c2ccccc2)C2CCCC2)C1 (stereo not drawn) the results were 2A firefly -11.0%[11.5 µM] and 2A Renilla -3.0%.
Screening Cc1c(-c2ccccc2)oc2c(C(=O)N3CCC3)cccc2c1=O returned 2A firefly 8.0% and 2A Renilla 8.4%.
COc1ccc(N(Cc2cccs2)C(=O)c2ccc(OCC(C)C)cc2)cc1 was read as 2A firefly 15.3% and 2A Renilla 77.2%[activator].
For CCCC(=O)Nc1ccc(CNCc2c(C)cc(C)cc2C)cc1 the results were 2A firefly -9.2% and 2A Renilla 1.6%.
O=C(CSc1nc(-c2ccco2)nc2cc(=O)[nH]n12)Nc1ccccc1Cl was read as 2A firefly -18.3% and 2A Renilla -22.6%.
For Cc1cccc(N(CC(=O)Nc2cccc(Cl)c2C)S(C)(=O)=O)c1C the results were 2A firefly -15.8% and 2A Renilla 129.9%[activator].
For CC1CCN(C(=O)COc2ccc(Cl)cc2C(N)=O)CC1 the results were 2A firefly 0.1% and 2A Renilla -14.9%.
Screening COc1ccc(N2CCN(c3ncccc3-c3nc(-c4ccccc4C)no3)CC2)cc1 returned 2A firefly 11.2% and 2A Renilla -2.4%.
`CCOC(=O)COc1ccc(C)cc1C(=O)c1ccn2nc(-c3ccccc3)cc2n1` gave 2A firefly 24.0% and 2A Renilla 19.6%.
CCOC(=O)c1cc(-c2ccc(C)cc2)n(CCC(=O)Nc2ccc(C(C)C)cc2)c1C was read as 2A firefly -17.5% and 2A Renilla 15.8%.
For CCN(CC)C(=O)CSc1nc2ccc(NC(=O)c3ccc(C)cc3)cc2s1 the results were 2A firefly inconclusive and 2A Renilla inconclusive.
For Nc1ccc(/C=C/c2ccc([N+](=O)[O-])cc2)cc1 the results were 2A firefly 168.0%[activator] and 2A Renilla -9.3%.
CCc1ccc(NC(=O)c2cc(S(=O)(=O)N3CCCC3)ccc2F)cc1 was read as 2A firefly 12.0% and 2A Renilla -19.1%.
O=C(Nc1ccc2oc(=O)ccc2c1)c1cccc2c(Cl)cccc12 was read as 2A firefly 6.2% and 2A Renilla -3.0%.
For Cc1c(Cl)cccc1NC(=O)C1CCN(c2nc3ccccc3[nH]2)CC1 the results were 2A firefly -23.2% and 2A Renilla -18.9%.
For Cc1cc(N2CCCCS2(=O)=O)cc(C)c1S(=O)(=O)NCc1ccccn1 the results were 2A firefly inconclusive and 2A Renilla 42.7%[activator].
`Cc1ccccc1-n1c(C)nnc1SCC(=O)Nc1c(C#N)c(C)c(C)n1Cc1ccco1` gave 2A firefly 1.0% and 2A Renilla -4.2%.
`COC(=O)[C@]12C[C@H](CC(=O)N3CCC(c4ccccc4)CC3)C(=O)N(Cc3ccco3)C1=C[C@H](C1CCCC1)O[C@@H]2C` gave 2A firefly -12.4% and 2A Renilla 0.0%.
Screening Cc1cc(Nc2cccc(Br)c2)n2c(nc3ccccc32)c1C#N returned 2A firefly 3.7% and 2A Renilla 2.4%.
Screening Cc1ccc2c(c1)sc1nc(=O)n(-c3ccc(Cl)cc3)c(=O)n12 returned 2A firefly 0.8% and 2A Renilla -3.8%.
Screening CCOc1cc(Br)c(/C=C2/NC(=O)NC2=O)cc1OCC returned 2A firefly inconclusive and 2A Renilla inconclusive.
`CCC(=O)N1CCc2cc(S(=O)(=O)NC(Cc3ccccc3)C(=O)NCc3ccc(C)cc3)ccc21` (stereo not drawn) gave 2A firefly -13.4% and 2A Renilla 21.4%.
`O=C(COc1coc(CN2CCCCC2)cc1=O)NCc1ccccc1Cl` gave 2A firefly -5.6% and 2A Renilla -14.4%.
Screening CC(C)CNc1nc2c(c(=O)[nH]c(=O)n2C)n1C(C)C returned 2A firefly 7.8% and 2A Renilla 17.1%.
`CCN(CC)C(=O)Cn1c(=O)n(CC2CCC(C(=O)NC)CC2)c(=O)c2sccc21` (stereo not drawn) gave 2A firefly -7.5% and 2A Renilla -9.0%.
For CC(O)CNc1nc2c(c(=O)n(C)c(=O)n2C)n1Cc1c(Cl)cccc1Cl (stereo not drawn) the results were 2A firefly 5.8% and 2A Renilla 4.7%.
`CCn1c(SCC(=O)Nc2cccc(C(=O)O)c2)nnc1-c1cc2ccccc2o1` gave 2A firefly 11.6% and 2A Renilla -5.8%.
For COc1cc(OC)cc(C(=O)Nc2cc3c(cc2N2CCOCC2)n(C)c(=O)n3C)c1 the results were 2A firefly -5.4% and 2A Renilla -8.0%.
Screening O=C(Cn1c(=O)[nH]c2c(-c3ccccc3F)c[nH]c2c1=O)NCc1ccc2c(c1)OCO2 returned 2A firefly -14.3% and 2A Renilla -11.6%.
Screening Cc1ccc(NC(=O)Nc2nnc(N3CCCC3)s2)cc1C returned 2A firefly 2.3% and 2A Renilla -8.6%.
Screening COc1ccc(NC(=O)C2CCCN2S(=O)(=O)c2cccc3cccnc23)cc1OC (stereo not drawn) returned 2A firefly -1.3% and 2A Renilla 19.2%.
`Cc1ccc(C(=O)c2cn(CC(=O)Nc3ccc(C)cc3Cl)c3nc(C)ccc3c2=O)cc1` gave 2A firefly -1.2% and 2A Renilla -11.8%.
`Cn1c(=O)c(C2=NN(S(C)(=O)=O)C(c3ccco3)C2)c(-c2ccccc2)c2cc(Cl)ccc21` (stereo not drawn) gave 2A firefly 3.1% and 2A Renilla -1.1%.
For O=C(NCCc1ccc(Cl)cc1)C1(c2cccs2)CCOCC1 the results were 2A firefly -3.9% and 2A Renilla 11.3%.
For O=C(CSc1nccn1C1CCCC1)Nc1cccc(F)c1 the results were 2A firefly 118.3%[activator] and 2A Renilla 42.6%[activator].
For COC(=O)c1cc(-c2ccc(OC)c(OC)c2)c2c(=O)[nH]c(=O)n(C)c2n1 the results were 2A firefly -11.0% and 2A Renilla 5.4%.
`O=C(Nc1ccc2oc(-c3cccc4c(Br)cccc34)nc2c1)c1ccc(Br)cc1` gave 2A firefly -0.5% and 2A Renilla -13.2%.
For Cc1ccc(Nc2nnc(-c3ccc(C)c(S(=O)(=O)N4CCCCC4)c3)c3ccccc23)cc1 the results were 2A firefly -2.5% and 2A Renilla 2.4%.
`Cc1nc(-c2ccc(F)cc2)sc1C(=O)NC1C=CS(=O)(=O)C1` (stereo not drawn) gave 2A firefly 16.4% and 2A Renilla -24.3%.
Cc1cnc2c(S(=O)(=O)N(CC(N)=O)C3CCCC3)cccc2c1 was read as 2A firefly 39.0%[activator] and 2A Renilla 48.6%.
`CCCCCn1c(N2CCCC(C)C2)nc2c1c(=O)[nH]c(=O)n2C` (stereo not drawn) gave 2A firefly -10.2% and 2A Renilla -11.4%.
`N#CCCN1CCN(c2ccc(NC(=O)c3ccc(F)cc3)c(C(=O)O)c2)CC1` gave 2A firefly 12.0% and 2A Renilla -2.7%.
Screening CC(C)Oc1ccc(CNC(=O)c2ccc(CS(=O)Cc3ccccc3Cl)o2)cc1 (stereo not drawn) returned 2A firefly inconclusive and 2A Renilla inconclusive.
`CCC(=O)Oc1ccc2c(=O)c(-c3ccccc3)coc2c1` gave 2A firefly 145.7%[activator] and 2A Renilla 0.2%.
COc1cccc(C(=O)Nc2c(C(=O)N3CCN(c4ccc(F)cc4)CC3)oc3ccccc23)c1 was read as 2A firefly 3.9% and 2A Renilla 11.4%.

Next section (6 carried over from the part before).
Cc1cnc2c(S(=O)(=O)N(CC(N)=O)C3CCCC3)cccc2c1 was read as 2A firefly 39.0%[activator] and 2A Renilla 48.6%.
`CCCCCn1c(N2CCCC(C)C2)nc2c1c(=O)[nH]c(=O)n2C` (stereo not drawn) gave 2A firefly -10.2% and 2A Renilla -11.4%.
`N#CCCN1CCN(c2ccc(NC(=O)c3ccc(F)cc3)c(C(=O)O)c2)CC1` gave 2A firefly 12.0% and 2A Renilla -2.7%.
Screening CC(C)Oc1ccc(CNC(=O)c2ccc(CS(=O)Cc3ccccc3Cl)o2)cc1 (stereo not drawn) returned 2A firefly inconclusive and 2A Renilla inconclusive.
`CCC(=O)Oc1ccc2c(=O)c(-c3ccccc3)coc2c1` gave 2A firefly 145.7%[activator] and 2A Renilla 0.2%.
COc1cccc(C(=O)Nc2c(C(=O)N3CCN(c4ccc(F)cc4)CC3)oc3ccccc23)c1 was read as 2A firefly 3.9% and 2A Renilla 11.4%.
For CCN(CC)c1ccc(NC(=O)Cn2cc3c(n2)CCCC3)c(C)c1 the results were 2A firefly -3.6% and 2A Renilla -12.4%.
CC(C)CC(=O)NC(NC(=O)CC(C)C)c1ccccc1F was read as 2A firefly 2.6% and 2A Renilla 15.3%.
c1ccc2c(CNC3CCCC3)cccc2c1 was read as 2A firefly 0.6% and 2A Renilla -8.7%.
`CCOC(=O)C1CCN(C(=O)c2nn(-c3ccc(OC)cc3)c(=O)c3c2c2ccccc2n3C)CC1` gave 2A firefly -14.6% and 2A Renilla 8.6%.
`CCC(=O)Nc1cccc(C(=O)Nc2nnc(C3CC(=O)N(c4ccc(C)c(C)c4)C3)s2)c1` (stereo not drawn) gave 2A firefly 12.8% and 2A Renilla -4.8%.
For Cc1ccc(S(=O)(=O)N(C)C)cc1NC(=O)c1nn(-c2ccccc2)c(=O)c2ccccc12 the results were 2A firefly -0.2% and 2A Renilla 6.7%.
`CC(=O)Nc1ccc(C(=O)C(C)Sc2ccc(C(F)(F)F)cn2)cc1` (stereo not drawn) gave 2A firefly -6.8% and 2A Renilla -7.3%.
O=C(N/N=C/c1ccc(OCCCOc2ccccc2Cl)cc1)c1ccccc1 was read as 2A firefly 61.9%[activator] and 2A Renilla 16.1%.
`CCC(=O)NCC1(c2ccccc2)CCCCC1` gave 2A firefly -5.0% and 2A Renilla 1.6%.
For CC(C)Oc1ccc(C(=O)NCC(c2ccc(N(C)C)cc2)N2CCc3ccccc32)cc1 (stereo not drawn) the results were 2A firefly -10.3% and 2A Renilla -10.1%.
`CCC(C(=O)NCc1ccccc1OC)n1nc(C)n2c(cc3sccc32)c1=O` (stereo not drawn) gave 2A firefly -12.0% and 2A Renilla 4.6%.
CCc1ccc(NC(=O)CCNS(=O)(=O)c2ccc3c(c2)CCCC(=O)N3)cc1 was read as 2A firefly 1.9% and 2A Renilla 0.0%.
Screening CCCn1cc(S(=O)(=O)c2ccc(C)c(C)c2)c(=O)c2cc(F)c(N3CCC(C)CC3)cc21 returned 2A firefly -2.8% and 2A Renilla -6.3%.
Screening CCOC(=O)c1ccc(NS(=O)(=O)c2cc(Br)cc3c2N(C(C)=O)C(C)C3)cc1 (stereo not drawn) returned 2A firefly 20µM* and 2A Renilla 120.5%[activator].
C=CCn1c(SCc2nc3ccccc3o2)nnc1-c1ccc(Cl)cc1 was read as 2A firefly 19.4% and 2A Renilla 54.9%[activator].
`O=C(CSc1cn(Cc2cccc(F)c2)c2ccccc12)N1CCCCC1` gave 2A firefly 0.0% and 2A Renilla 53.9%[activator].
Screening CC1CC(C)CN(C(=O)c2ccc(Oc3ccccc3)cc2)C1 (stereo not drawn) returned 2A firefly inconclusive and 2A Renilla inconclusive.
For CCOc1ccc(-n2c(CC)nc3c(cnn3-c3ccc(Cl)cc3)c2=O)cc1 the results were 2A firefly -2.8% and 2A Renilla -7.3%.
CCN(c1cccc(C)c1)S(=O)(=O)c1cc(Br)cc2c1N(C(C)=O)C(C)C2 (stereo not drawn) was read as 2A firefly inconclusive and 2A Renilla 24.4%.
`C=CCN1CCN(c2cccc(C(F)(F)F)c2)CC1` gave 2A firefly -10.2% and 2A Renilla -14.1%.
For CCNc1c(NC(=O)c2cccc(OC)c2)c(=O)oc2ccccc12 the results were 2A firefly -7.4% and 2A Renilla 4.4%.
Screening COc1ccc(-n2ncc(C(=O)Nc3ccc(C)cc3Cl)c2C2CCN(C(=O)OC(C)(C)C)CC2)cc1 returned 2A firefly -26.3% and 2A Renilla 9.6%.
Screening CCc1ccc(S(=O)(=O)c2cnc(SCC(=O)Nc3ccc(OC)cc3OC)[nH]c2=O)cc1 returned 2A firefly -16.2% and 2A Renilla -14.3%.
`Cc1cccc(NS(=O)(=O)c2ccc3c(c2)[C@H]2C=CC[C@H]2[C@@H](c2ccc(F)cc2)N3)c1` gave 2A firefly -23.3% and 2A Renilla 18.0%.
Screening Cc1ccc2oc(-c3ccc(C)c(NC(=O)c4ccc5c(c4)OCCO5)c3)nc2c1 returned 2A firefly 38.7%[activator] and 2A Renilla -4.1%.
For O=C(CN1CCCc2cc(F)c(F)cc21)Nc1cccc2nsnc12 the results were 2A firefly -5.3% and 2A Renilla 1.8%.
`Cn1cc(/C=C(\NC(=O)c2ccco2)C(=O)N2CCOCC2)c2ccccc21` gave 2A firefly 6.6% and 2A Renilla -1.6%.
O=C(NC1CCS(=O)(=O)C1)c1cc2ccccc2oc1=O (stereo not drawn) was read as 2A firefly 0.0% and 2A Renilla 0.0%.
COc1ccc(CNC(=O)C2CCCN(S(=O)(=O)N(C)c3ccc(F)cc3)C2)cc1OC (stereo not drawn) was read as 2A firefly inconclusive and 2A Renilla inconclusive.
O=C(NCc1ccco1)c1cc(-c2ccccn2)nc2ccccc12 was read as 2A firefly 33.9%[activator] and 2A Renilla 32.7%[activator].
For Cc1ccc(Nc2nc3ccccc3nc2-n2nc(C)cc2C)cc1 the results were 2A firefly -10.3% and 2A Renilla -10.3%.

Outcome played no part in choosing rows. About 0.55% of those tested had a hit in this group.
